High-throughput results: PubChem, Broad Institute
Calb FLC = C. albicans growth inhibition with fluconazole, primary screen, CaCi-2 strain, Alamar Blue fluorescence. C. albicans CaCi-2 (fluconazole-resistant clinical isolate) + fluconazole, 48 h. growth inhibition, % (no concentration beside the values). 0.57% of 300,000 active. AID 1979, 2009;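 active = most replicates above 75%; inconclusive = exactly half above 75%; inactive = most below 75%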;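 also: all wells also contain fluconazole at 8 µg/ml as a sub-toxic cotreatment; 0% = median of DMSO wells and 100% = median of geldanamycin control wells; wells of about 8 µL received 7.5 nL stock; the first replicate is given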
Ecoli rRNA inh = reduced GFP signal of wild-type E. coli, primary screen, bacterial rRNA inhibitor project, GFP/RFP fluorescence, OD600, single point. AID 720706, 2013. GFP signal change (wild-type ribosome), % (test concentration not listed). E. coli WT GFP vs humanized-ribosome RFP mutants, 24 h; stronger effect = lower value; DMSO median 0, no signal -100. 1.6% of 350,000 active;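 active = significant combined selectivity score with lowered wild-type GFP, culture density cut under 30%, mutant RFP and density less affected; inactive = any of these conditions unmet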; also: one replicate is shown; some compounds called inactive have numbers as strong as hits
Beta apoptosis = inhibitors of cytokine-induced beta cell apoptosis, primary screen, luminescence | 0.8% of 300,000 active | INS-1E cytokine-induced death, ATP luminescence, 48 h; percent of positive-control rescue, neutral wells zero | protection from apoptosis, % (concentration not given with the values);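 active = all replicates at 75% or more, or half of them and the mean; inconclusive = half reach 75% but not the mean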;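 also: 0% = cytokine-treated negative control wells and 100% = positive control rescue; higher means more ATP so stronger rescue from cytokine killing; wells of about 40 µL received 100 nL stock; the first replicate is given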
RanGTP-Imp inh = inhibitors of RanGTP-importin-beta interaction, primary screen, biochemical, FRET, CFP-Ran, YFP-importin-beta, homogeneous. Ran GTPase (GTP-bound) - importin-beta complex. cell-free CFP-Ran/YFP-importin-beta FRET ratio. inhibition, % (no concentration beside the values). 1.1% of 300,000 active;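 active = most replicates above 15%; inconclusive = exactly half above 15%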;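 also: 0% = DMSO wells and 100% = Ran loaded with GDP instead of GTP; wells of about 40 µL received 100 nL stock; the first replicate is given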
FGF22 binding = binders of human FGF22 protein, primary screen, FGF22 synaptogenesis inhibitor project, biophysical, thermal shift, single point. recombinant FGF22 thermal shift, SYPRO orange fluorescence; percent of sucrose octasulfate shift, DMSO zero. 1.5% of 340,000 active. calls only at 9.99 µM. AID 651658, 2012;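 active = melting point raised past a set limit in the mean and every replicate; inconclusive = no clear call; three in four hits are not shown here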
Target sequence (Q9HCT0 whole entry, looked up): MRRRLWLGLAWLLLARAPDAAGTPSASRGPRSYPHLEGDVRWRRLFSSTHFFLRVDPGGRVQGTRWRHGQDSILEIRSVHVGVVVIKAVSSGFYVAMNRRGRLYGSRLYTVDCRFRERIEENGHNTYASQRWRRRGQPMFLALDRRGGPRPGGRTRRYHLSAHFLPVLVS
T cruzi repl = inhibitors of intracellular T. cruzi growth, primary screen, luminescence, NIH3T3 host cells | T. cruzi beta-gal in NIH3T3, 90 h | 1.4% of 300,000 active | AID 1885, 2009 | inhibition, % (test concentration not listed);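 active = mean inhibition across valid replicates above about 55%, limit read from the data; inconclusive = mean below that limit but half or more replicates reach it; inactive = mean below it, under half of replicates reach it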;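 also: signal also drops with host cell toxicity which is not excluded here; 0% = plate median of DMSO wells and 100% = zero luminescence signal; higher percent means less beta-gal luminescence so fewer parasites; stock transfer was 50 nL into about 50 µL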
AF4-AF9 inh = inhibitors of AF4 peptide binding to AF9, primary screen, biochemical, AlphaScreen, biotin-AF4 peptide, FLAG-AF9, single point; 0.47% of 350,000 active; inhibition, % at 10 µM; AID 651704, 2012;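 active = every replicate reaching a set inhibition limit, whatever the replicate mean, cut at about 25% in these data; inconclusive = mean inhibition reaches that limit but some replicates miss it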;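 also: 0% = plate neutral control median and 100% = total signal loss; the record names both 10 and 1 µM as test concentration; the first replicate is given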
Target sequence (P42568 whole entry, looked up): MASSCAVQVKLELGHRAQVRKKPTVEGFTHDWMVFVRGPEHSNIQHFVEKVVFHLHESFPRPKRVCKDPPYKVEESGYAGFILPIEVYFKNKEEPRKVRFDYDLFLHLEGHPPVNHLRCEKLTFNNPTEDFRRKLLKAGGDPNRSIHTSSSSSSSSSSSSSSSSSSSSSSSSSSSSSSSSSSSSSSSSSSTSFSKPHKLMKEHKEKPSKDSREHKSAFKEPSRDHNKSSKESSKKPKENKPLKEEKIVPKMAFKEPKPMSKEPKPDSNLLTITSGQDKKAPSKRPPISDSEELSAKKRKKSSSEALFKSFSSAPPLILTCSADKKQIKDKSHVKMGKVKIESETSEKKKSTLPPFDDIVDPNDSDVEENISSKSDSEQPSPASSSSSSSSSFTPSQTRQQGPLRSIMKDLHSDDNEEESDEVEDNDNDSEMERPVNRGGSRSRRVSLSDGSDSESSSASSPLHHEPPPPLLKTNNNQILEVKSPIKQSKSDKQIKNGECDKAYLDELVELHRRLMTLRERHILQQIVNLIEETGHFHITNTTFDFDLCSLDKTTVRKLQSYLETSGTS
ALR inh = inhibitors of human ALR sulfhydryl oxidase, primary screen, biochemical, H2O2 detection, HRP-luminol luminescence, single point; FAD-linked sulfhydryl oxidase ALR (Homo sapiens), P55789; AID 485317, 2010; 3.8% of 290,000 active; purified ALR, DTT oxidation; inhibition, % (test concentration not listed);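 active = mean and each replicate at 75% or more; inconclusive = only one of the two met; inactive = neither met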;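 also: stock transfer was 7.5 nL into about 7.5 µL; 0% = neutral wells and 100% = wells with inactivated enzyme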
Target sequence (P55789 whole entry, looked up): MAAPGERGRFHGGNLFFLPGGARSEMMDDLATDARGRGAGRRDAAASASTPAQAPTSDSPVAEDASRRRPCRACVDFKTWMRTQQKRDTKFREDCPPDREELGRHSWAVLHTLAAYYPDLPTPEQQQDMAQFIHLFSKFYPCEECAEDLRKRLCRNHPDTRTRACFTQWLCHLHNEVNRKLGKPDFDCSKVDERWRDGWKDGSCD
Ecoli rRNA inh OD600 = second read-out of Ecoli rRNA inh, no call of its own (marks repeat the call); OD600 change, %; measured here: OD600 growth;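 optical density of the mix in the first replicate; 0 = DMSO median and -100 = no signal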
Ecoli rRNA inh RFP = also measured in Ecoli rRNA inh; calls as there; RFP signal change, %; measured here: RFP humanized mutant strains;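 first replicate; 0 = DMSO median and -100 = no signal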
Active calls of the source: *; i = inactive; ? = inconclusive; / = no result given.

SMILES	Calb FLC	Ecoli rRNA inh	Ecoli rRNA inh OD600	Ecoli rRNA inh RFP	Beta apoptosis	RanGTP-Imp inh	FGF22 binding	T cruzi repl	AF4-AF9 inh	ALR inh
O=C(CCn1c(=S)oc2ccccc21)Nc1ccc2c(c1)OCCO2	-6	/	/	/	-4	-2.4	/	6	/	/
O=C(Cn1cccc1C(=O)c1ccccc1)NCc1ccccn1	-3	/	/	/	1	-2.5	/	-20	/	-16
Cc1ccc(CNC(=O)C2CCCN2S(=O)(=O)c2ccc(F)cc2)cc1 (stereo not drawn)	-41	8	11	3.9	0	4.9	i	3	-4.2	/
COc1cccc(CNC(=O)CN2C(=O)CC(c3ccccc3)=Nc3ccccc32)c1	7	-26	-23	-5.3	-2	-4.8	i	5	-0.7	-31
CC(CSc1nc2ccccc2s1)Cn1c(N2CCCC2)nc2c1c(=O)[nH]c(=O)n2C (stereo not drawn)	12	/	/	/	1	-2.0	/	14	/	98*
CC(=O)N1CCc2cc(S(=O)(=O)Nc3ccccc3N3CCN(C)CC3)ccc21	-4	-1	6	3.3	2	-0.1	i	5	-0.5	55
COc1ccc(C(=O)NC2CCN(S(=O)(=O)c3ccccc3)CC2)cc1	-10	6	7	-0.8	-3	1.7	i	1	-9.3	0
CCOC(=O)c1oc2ccccc2c1NC(=O)c1cccs1	4	/	/	/	-1	5.4	/	21	/	-1
COc1cc(C(F)(F)F)c(C(=O)N(C)Cc2ccc(Cl)c(Cl)c2)cn1	-2	-22*	-12*	0.7*	-6	-0.6	i	/	-2.3	/
O=C(Nc1nc2ccccc2s1)c1ccc(Cl)s1	-2	-10	4	17	/	-2.8	i	-5	-0.1	8
CN1Cc2c(N3CCOCC3)nc3sc(C(=O)c4ccccc4)c(N)c3c2CC1(C)C	-5	-36*	-19*	-1.6*	0	-0.6	i	13	/	-17
CCOc1cc(/C=N/NC(=O)c2nn(C)cc2Br)ccc1OCc1ccccc1Cl	1	/	/	/	24	-1.0	/	36	/	1
COC(=O)c1ccc(CNC(=O)Cn2cnc3c(SC)nc(N)nc32)cc1	/	24	21	2.9	-4	/	i	/	-1.0	/
Cc1cc(C(=O)OCC(=O)Nc2ccccc2Cl)c(C)o1	/	4	-2	-2.4	2	/	i	/	1.3	-4
CCOC(=O)c1c(C)[nH]c(C2=NNC(=NC(C)COC)SC2)c1C (stereo not drawn)	-16	2	8	5.7	/	-0.7	i	-8	1.5	64
C=CCc1cccc2cc(C(=O)Nc3ccc(F)cc3)c(=O)oc12	1	6	6	1.2	2	-0.7	i	-6	4.5	-4
O=C(CCn1c(=O)[nH]c2ccsc2c1=O)Nc1ccc(F)c(F)c1	-2	/	/	/	1	4.6	/	10	/	/
CC1(C)C2CCC1(C)C(OC(=O)CSc1nc(N)cc(=O)[nH]1)C2 (stereo not drawn)	-3	/	/	/	-6	-5.7	/	5	/	-3
COc1cc2c(cc1OC)[C@H](C)N(C(=O)CSc1nc(O)c(C(C)C)c(=O)[nH]1)CC2	-1	/	/	/	-3	-2.3	i	-5	-2.9	/
CCCCC(CC)C(=O)NCCCN1CCN(CCCNC(=O)C(CC)CCCC)CC1 (stereo not drawn)	-9	/	/	/	2	-4.3	/	18	/	-6
N/C(=N\OC(=O)c1ccc(Cl)c(Cl)c1)c1cccnc1	2	/	/	/	-2	1.4	/	6	/	-7
CC1Cc2ccccc2N1C(=O)CSc1nnnn1C1CCCC1 (stereo not drawn)	3	/	/	/	4	2.6	/	13	/	/
Cc1ccc(NC(=O)CNC(=O)c2ccc(C)s2)nc1	-9	-1	-2	1.3	/	-4.3	i	-4	0.3	0
O=C1CN(C(=O)COC(=O)c2ccccc2O)c2ccccc2N1	9	1	-8	-1.9	-3	0.7	i	-6	1.0	-2
CCN(CC)S(=O)(=O)c1cc(C(=O)NC2=NCCS2)ccc1Cl	1	/	/	/	2	3.5	/	3	/	-1
S=c1nc(-c2ccccc2)oc2c1CCCC2	-5	/	/	/	1	0.0	/	-10	/	5
c1ccc(-c2nnc3n2NC(c2ccc4c(c2)OCO4)S3)cc1 (stereo not drawn)	63	/	/	/	0	-4.7	/	-10	/	5
O=C(c1ccccc1)C(c1ccccc1)c1ccccc1	10	-11	-10	-15	3	0.8	i	6	11	/
O=C(c1ccsc1)N1CCCC(N2CCOCC2)C1 (stereo not drawn)	7	9	13	-5.5	-2	-3.5	i	-32	-2.1	-2
COc1cccc(CN2CCN(Cc3cc4ccccc4o3)CC2CCO)c1 (stereo not drawn)	-5	3	8	3.2	-8	-1.5	i	14	2.9	-6
CCC(C)(C)n1nnnc1CN(Cc1ccc(Cl)cc1)Cc1ccco1	1	/	/	/	6	-0.2	/	35	/	-9
COC(=O)CN(C)C(=O)c1ccc(OC)c(OC2CCN(C(C)C)CC2)c1	6	15	8	1.5	1	-2.1	i	-4	2.0	/
CCc1ccccc1N(CC(=O)NC(C)c1ccccc1)S(C)(=O)=O (stereo not drawn)	-3	-3	-2	-4.3	0	0.4	i	-4	-1.5	/
O=C(Cn1nnc(N2CCCCC2)n1)c1ccc(Cl)c(Cl)c1	-4	3	-1	-1.5	-5	4.0	i	/	-1.7	-20
COc1cc(OC)cc(C(=O)Nc2ccccc2N2CCOCC2)c1	2	/	/	/	-8	-6.5	/	11	/	-4
O=C(OC(C(=O)NC1CCCC1)c1ccccn1)c1cccs1 (stereo not drawn)	3	/	/	/	-1	1.7	/	-16	/	-3
COc1ccc(N2C(N)=C(C#N)C(c3ccsc3)C3=C2CCCC3=O)c(OC)c1 (stereo not drawn)	9	/	/	/	10	2.5	/	-9	/	/
COc1ccc(OC)c(NC(=O)COC(=O)c2cc3c(s2)CCC3)c1	26	0	3	0.6	-8	3.8	i	-6	0.7	-4
Cc1cc(Oc2ccccc2)nc(SCC(N)=O)n1	-13	/	/	/	-3	4.5	/	-18	/	-2
Cc1cc(NC(=O)Nc2cccc([N+](=O)[O-])c2)no1	21	4	5	2.3	4	2.4	i	-2	0.2	/
Cc1cccc(NC(=O)c2ccc(Cl)nc2)n1	16	16	18	2.8	7	-0.1	i	1	1.4	0
CCOC(=O)N1CC=C2C(C#N)=C(N)C(C#N)(C#N)[C@H](c3ccc(OCC)c(OCC)c3)[C@H]2C1	27	6	-2	6.8	9	0.9	i	4	?	20
CC(C)(C)OC(=O)[C@H](Cc1ccccc1)NC(=O)c1nc[nH]c1C(=O)NC1CCN(C(=O)OC(C)(C)C)CC1	17	8	3	-4.6	1	4.0	i	2	1.2	-5
COc1cccc(OCCNC(=O)c2cc([N+](=O)[O-])cc([N+](=O)[O-])c2)c1	16	8	-3	8.6	-5	-1.5	i	61*	0.0	/
CC(=O)c1cccc(S(=O)(=O)N(Cc2cc3cc4c(cc3[nH]c2=O)OCCO4)CC2CCCO2)c1 (stereo not drawn)	-1	/	/	/	1	-2.0	/	0	/	-4
O=c1sc2ccccc2c(N2CCOCC2)c1[N+](=O)[O-]	1	15	5	1.1	10	-0.3	i	-11	-6.1	41
O=C(CNCc1ccccc1Cl)Nc1cc(S(=O)(=O)N2CCOCC2)ccc1Cl	/	-21	-38	-5.9	0	/	i	/	2.2	-30
CN(c1cccc(NS(=O)(=O)c2cccc([N+](=O)[O-])c2)c1)S(C)(=O)=O	-9	23	8	-0.8	-1	-1.3	/	-3	-6.2	-21
COc1cc(/C=N/Nc2ccccc2[N+](=O)[O-])ccc1OC(=O)c1ccccc1F	-1	11	9	3.2	8	-2.4	i	-25	1.2	/
CCS(=O)(=O)N1CCC(C(=O)NCc2cccnc2)CC1	2	5	7	4.1	0	3.2	i	7	-0.3	-9
CCC(C)NC(=O)c1cc(-c2ccccc2O)on1 (stereo not drawn)	-12	0	0	-2.0	0	0.8	i	-5	0.6	/
CC1(C)CC(=O)c2c(Cc3ccccc3)noc2C1	6	-16	-16	-1.0	-2	-1.5	i	6	0.1	/
Cc1nc(Cl)sc1C(=O)O	-9	/	/	/	/	9.2	/	-9	/	-6
Cc1ccc(NC(=O)CSCc2cc(=O)n3ccsc3n2)cc1	-2	/	/	/	-4	-4.7	/	1	/	58
CCN(CC)Cc1c(O)ccc2c(=O)c(-c3ccccc3)coc12	-7	/	/	/	/	0.0	i	4	2.4	-7
CCn1c(SCc2cccc(C(F)(F)F)c2)nnc1-c1ccco1	18	/	/	/	-2	2.3	/	23	/	5
O=C(COC(=O)C1(c2ccc(Cl)cc2)CCCC1)Nc1ncc(C(F)(F)F)cc1Cl	2	-9	-8	-4.4	-7	5.2	i	-5	-3.4	-3
O=C(c1cc(COc2c(F)cccc2F)on1)N1CCC(c2ccccc2F)C1 (stereo not drawn)	-8	-32	-58	2.4	1	-2.3	i	21	0.1	0
Cc1ccc(-n2nc(C)c(/C=N/NC(=O)c3cccnc3)c2Cl)cc1	32	9	7	1.5	-2	-1.2	i	4	1.3	0
O=C(Nc1nccs1)c1cc(S(=O)(=O)N2CCCCC2)ccc1Cl	0	/	/	/	-1	-2.1	/	2	/	1

The list continues:
SMILES	Calb FLC	Ecoli rRNA inh	Ecoli rRNA inh OD600	Ecoli rRNA inh RFP	Beta apoptosis	RanGTP-Imp inh	FGF22 binding	T cruzi repl	AF4-AF9 inh	ALR inh
Cc1noc(C)c1CSc1ncnc2sc3c(c12)CCCCC3	12	-34	-29	-9.7	-6	-2.3	i	21	-1.6	-2
CC(C)(C)N1NC(=O)Nc2ccccc2C1=O	0	/	/	/	-6	-2.1	/	-1	/	14
O=C(O)C/C(=C\c1cc(Br)cs1)c1nc2ccccc2o1	9	-15	3	-3.4	-4	0.3	i	-13	0.0	36
COc1ccccc1C(=O)COC(=O)c1ccc(N(C)C)cc1	-80	-22	-15	-5.0	-7	1.8	i	-11	-2.2	/
CCOc1ccc(N(CC)S(=O)(=O)c2cccc3nsnc23)cc1	12	-28	-36	-8.9	-7	3.4	i	12	14	-40
CCn1c(=S)[nH]c2nc3c(cc2c1=O)CCCC3	-48	/	/	/	0	3.7	/	-1	/	/
CCCCn1c(N)c(N(CC)C(=O)CSc2nnc(-c3ccco3)n2CC)c(=O)[nH]c1=O	17	4	8	0.2	0	2.6	i	-12	-1.2	-6
COc1ccc(-c2nc(SCC(=O)NC3CCCCC3)n[nH]2)cc1	7	-7	-11	-1.4	-3	3.3	i	-10	-1.1	2
CCCS(=O)(=O)N1CCCC(C(=O)NCc2ccco2)C1 (stereo not drawn)	-4	/	/	/	-4	?	/	3	/	/
CC(C)CCN1CC(C(=O)NC(C)C)CC1=O (stereo not drawn)	-1	24	2	1.0	-5	-5.8	i	-15	-6.8	1

A portion of the library; the hit share may differ from the screen's.
